Mtb betalactam = beta-lactam sensitization of Mtb H37Rv; M. tuberculosis H37Rv growth with meropenem, percent inhibition; hits of this screen are not shown here; inhibition, % at 25 µM; 330,000 compounds, 0.27% hits; AID 434955;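 active means about 74% or more and at least 40 points above the plate without the antibiotic, then above 30% in a dose series; inconclusive means first-round hits that could not be retested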;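 further: growth measured after seven days incubation then overnight dye step; 0% = bacteria only wells and 100% = bacteria with antibiotic; twin plates without the antibiotic show which effects depend on it; some results filed as inactive read as strong as hits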
RecA intein inh = inhibitors of M. tuberculosis RecA intein splicing; P9WHJ3; cell-free RecA intein splicing, fluorescence; inhibition, %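 (about 9 µM by stock and volumes)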; 290,000 compounds, 0.75% hits; AID 2221; in the data active means inhibition above about 30%; inconclusive means no clear call, values can overlap the other calls;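 further: 0% = vehicle wells and 100% = reference inhibitor control wells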
Target sequence (P9WHJ3 whole entry, looked up): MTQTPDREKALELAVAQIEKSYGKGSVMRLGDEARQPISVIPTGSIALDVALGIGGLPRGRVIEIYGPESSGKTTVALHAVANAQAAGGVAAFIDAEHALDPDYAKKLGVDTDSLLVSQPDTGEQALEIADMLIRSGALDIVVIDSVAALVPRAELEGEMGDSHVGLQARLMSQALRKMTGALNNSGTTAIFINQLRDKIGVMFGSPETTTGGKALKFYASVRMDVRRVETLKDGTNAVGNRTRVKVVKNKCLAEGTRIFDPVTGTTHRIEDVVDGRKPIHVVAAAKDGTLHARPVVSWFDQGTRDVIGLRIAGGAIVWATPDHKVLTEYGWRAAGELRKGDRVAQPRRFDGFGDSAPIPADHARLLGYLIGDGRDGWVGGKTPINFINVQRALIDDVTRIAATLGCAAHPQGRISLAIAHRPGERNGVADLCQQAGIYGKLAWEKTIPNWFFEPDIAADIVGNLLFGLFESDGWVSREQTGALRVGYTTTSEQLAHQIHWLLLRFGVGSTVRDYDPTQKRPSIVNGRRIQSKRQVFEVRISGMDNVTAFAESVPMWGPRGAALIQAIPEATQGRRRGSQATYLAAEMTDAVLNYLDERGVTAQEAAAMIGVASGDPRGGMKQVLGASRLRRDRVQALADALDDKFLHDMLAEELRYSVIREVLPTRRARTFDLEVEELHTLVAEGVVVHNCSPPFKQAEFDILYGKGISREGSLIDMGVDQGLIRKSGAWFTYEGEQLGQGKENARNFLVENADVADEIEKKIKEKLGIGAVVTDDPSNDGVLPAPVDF
YopH PTP inh = inhibitors of Yersinia enterocolitica YopH tyrosine phosphatase | 140,000 compounds, 0.16% hits | AID 898 | fluorescence Ex485/Em525 | inhibition, %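 (about 10 µM by stock and volumes)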;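 active means inhibition of 50% or more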;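 further: controls were vehicle for no effect and minimum signal wells for full effect; inactives centre near -20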
Mtb growth = M. tuberculosis H37Rv growth inhibitors, H37Rv strain (AID 1626) | M. tuberculosis H37Rv growth inhibition; higher % means a stronger effect | 220,000 compounds, 0.95% hits | inhibition, % at 10 µM; hits with a dose series show IC50 in µM;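 active means confirmed in a dose series; inconclusive means inhibition above 80% but not taken into the dose series; inactive means below 80% or under 30% at every dose of the series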;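 further: bacteria incubated seven days before Alamar blue readout; 0% = bacteria only wells and 100% = bacteria with antibiotic wells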
Arbovirus anti = antivirals against arbovirus infection; arbovirus infection cell-based antiviral screen; inhibition, % at 10 µM; 200,000 compounds, 0.37% hits; AID 1251;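 active means inhibition from about 30%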;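 further: bluetongue infection of BSR cells; cell survival read as ATP light after 72 h; 0% = infected wells without compound and 100% = uninfected wells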
Arbovirus anti repeat = further read-out of Arbovirus anti, marked with its call; inhibition, %; measured here: 10K subset replicate screen; many hits read low in the repeat;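 first of two repeat runs on a subset; 0% = infected and 100% = uninfected wells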
* hit, by the source's call; ? = inconclusive; nt = not tested or not shown. An excerpt. The share of hits here may be higher or lower than overall.

SMILES	Mtb betalactam	RecA intein inh	YopH PTP inh	Mtb growth	Arbovirus anti	others
O=C(Cn1cc(C(F)(F)F)ccc1=O)Nc1ccccc1	3	-1.4	nt	-11%	nt
COc1cc(NC(=O)CCS(=O)(=O)c2ccc3nc(C)sc3c2)cc(OC)c1OC	0	3.6	nt	nt	nt
Cc1cc(Cl)ccc1Oc1cccc(C(=O)/C(C#N)=C/N(C)C)c1	-3	13	3	-3%	10
COCCCN1C(=O)c2ccc(C(=O)N3CCN(c4ccccc4OC)CC3)cc2C1=O	-9	-2.8	nt	nt	nt
c1ccc(Oc2ccc3ccccc3n2)cc1	1	nt	nt	3%	5
Cc1ccc(-c2cc(C(=O)NC3=NCCS3)c3cc(Br)ccc3n2)o1	5	-5.9	-22	-6%	13
COc1ccc(-n2nnc3c(=O)n(CC(=O)OCc4ccccc4)cnc32)cc1	-3	1.7	-28	5%	2	Arbovirus anti repeat=3
COC(=O)CN1C(=S)N(c2ccc(Cl)cc2)C(=O)C1CC(=O)Nc1ccc(Cl)cc1 (configuration not stated)	-13	11	-24	nt	-6
CC(C)(C)C(=O)Nc1ccc2c(c1)OCCOCCOc1cc(NC(=O)C(C)(C)C)ccc1OCCOCCO2	82	0.3	nt	0%	26
COc1ccc(-n2nnnc2CNC(=O)c2ccc(S(=O)(=O)N3CCOCC3)cc2)cc1	-10	-3.3	nt	nt	nt

As a working copy, 3 of the compounds above.
SMILES	Mtb betalactam	RecA intein inh	YopH PTP inh	Mtb growth	Arbovirus anti	others
Cc1ccc(-c2cc(C(=O)NC3=NCCS3)c3cc(Br)ccc3n2)o1	5	-5.9	-22	-6%	13
COc1ccc(-n2nnc3c(=O)n(CC(=O)OCc4ccccc4)cnc32)cc1	-3	1.7	-28	5%	2	Arbovirus anti repeat=3
COC(=O)CN1C(=S)N(c2ccc(Cl)cc2)C(=O)C1CC(=O)Nc1ccc(Cl)cc1 (configuration not stated)	-13	11	-24	nt	-6

The list continues:
SMILES	Mtb betalactam	RecA intein inh	YopH PTP inh	Mtb growth	Arbovirus anti	others
COc1ccc(C2=CSC3=NCCN23)cc1Cl	-2	0.4	nt	nt	nt
Cc1ccccc1S(=O)(=O)NCC1CCCO1 (configuration not stated)	-4	-1.7	nt	nt	nt
NS(=O)(=O)c1ccc(N2CCN(CCOc3ccc(Cl)cc3)CC2)nc1	19	-0.8	nt	nt	nt
CNC(=O)CN1C(=O)C2C3C=CC(C3)C2C1=O (configuration not stated)	-2	-1.0	-11	-15%	6
CCc1nc2ccccc2c(=O)n1-c1ccc2ccccc2c1	-2	-1.2	2	-6%	-13
COc1cc(/C=N/Nc2ccc(C(F)(F)F)cn2)cc(OC)c1O	nt	-1.5	nt	7%	-16
CCOP(=O)(c1ccccc1)C1(C#N)CCCC1 (configuration not stated)	3	-0.5	-38	-4%	3
CC(=O)c1ccc(NC(=O)C2=CC(c3cccs3)=NS(=O)(=O)N2C)cc1	-5	0.6	nt	nt	nt
COc1ccc(OC)c2sc(NC(=O)C3CC3)nc12	0	0.1	-44	-10%	-4	Arbovirus anti repeat=-9
CN(C)C1=NC(=O)/C(=C/c2ccc(-c3ccc(S(N)(=O)=O)cc3)o2)S1	-5	-21	nt	nt	nt
Cc1nccn1CCCNC(=O)CC1C(=O)NCCN1Cc1ccccc1C(F)(F)F (configuration not stated)	-3	3.4	nt	-5%	nt
COc1ccccc1NC(=S)N(CCN1CCCCCC1)Cc1cccs1	-9	-1.3	nt	5%	15
COc1ccc(CCNC(=O)C2CC3Cn4c(nc5ccccc54)C3N2c2ccccc2)cc1 (configuration not stated)	-6	-0.2	nt	0%	nt
COC(=O)Nc1ccc(S(=O)(=O)Nc2ccc(O)cc2)cc1	-6	-2.4	-4	-13%	-2
CCOCCOC(=O)CCSc1n[nH]c(=O)[nH]c1=O	-3	-0.8	2	5%	0
CCCCN(C)CCC(=O)Nc1ccc(Cl)cc1	0	-2.4	-11	-1%	6
COCC(C)N=C1NN=C(c2cc(C)n(Cc3ccccc3Cl)c2C)CS1 (configuration not stated)	3	9.6	nt	6%	11
COC(=O)COc1ccc(S(=O)(=O)NC2CCCCCC2)cc1	10	1.5	8	0%	-4
CNC(=S)Nc1ccc2nc(C)oc2c1	-8	-3.3	nt	3%	1
CN(Cc1cn(C)nc1-c1cccc(Cl)c1)CC1CCCCO1 (configuration not stated)	-6	1.3	nt	-1%	-2
O=[N+]([O-])c1cc(S(=O)(=O)Nc2cccc(C(F)(F)F)c2)ccc1-n1nnc2ccccc21	0	6.1	4	-7%	-28
COC(=O)NCc1ccc(S(=O)(=O)N2CCOCC2)cc1	3	-1.7	22	-8%	7
Cc1cccc2cc(C#N)c(NCCNS(=O)(=O)c3ccccc3)nc12	14	-9.7	nt	-5%	4
COc1ccc(C(=O)Nc2cc(C(C)=O)c(/C=C/N(C)C)oc2=O)cc1	3	-11	-36	nt	0
O=C(OCc1cc(Cl)ccc1OC(F)F)c1cccnc1	1	0.1	nt	3%	1
COc1ccc2[nH]c3c(c2c1)CCN1C(=O)N([C@@H](C)C(=O)NC2CC2)C(=O)[C@]31C	-8	2.1	nt	nt	nt
CC(=O)n1cc(/C=C2/N=C(c3ccccc3)OC2=O)c2ccccc21	99	1.8	-68	8%	7
CC(C)=NNc1nc(-c2ccc(N3C(=O)CCC3=O)cc2)cs1	-7	-4.8	nt	4%	nt
COc1ccc([C@@H]2Sc3ccccc3N(CCN(C)C)C(=O)[C@@H]2OC(C)=O)cc1	-2	-2.4	-44	-5%	9
O=C1OC(Oc2ccccc2)(c2ccccc2)c2ccccc21 (configuration not stated)	14	18	-10	-3%	0
Nc1ccc(C(=O)N/N=C/c2cn(Cc3cccc(F)c3)c3ccccc23)cc1	15	-0.4	nt	nt	nt
CSCC[C@H](NC(=O)Nc1cccc(C(F)(F)F)c1)C(=O)O	-11	-2.9	-41	-3%	0
COc1ccc(/C=C2\CCn3c2nc2cc(C(=O)O)ccc2c3=O)cc1	5	0.1	nt	nt	nt
CCN(CC)S(=O)(=O)c1cc([N+](=O)[O-])ccc1N=Nc1c(O)n(C)c2ccccc12	7	0.2	-30	7%	-8
COc1ccc(N/N=C/c2c(O)n(-c3ccc(C)c(C)c3)c(=O)[nH]c2=O)cc1	86	-0.7	-23	70%	-31
CC1(C)Oc2ccc3ccc(=O)oc3c2C(/C=N/O)C1=O (configuration not stated)	6	-78	-26	-8%	-6
CCOC(=O)C1C2C=CC3(CN(Cc4cccs4)C(=O)C13)O2 (configuration not stated)	-10	nt	-31	-6%	4
CCOC(=O)CCn1c(=S)n(CCC(=O)OCC)c2ccccc21	12	1.6	nt	-7%	nt
O=C(CN(Cc1ccccc1)S(=O)(=O)c1ccc2c(c1)OCCO2)N/N=C/c1cccc(Br)c1	4	4.2	-13	0%	-5
N#CCCSc1ccccc1NC(=O)c1ccc(S(=O)(=O)N2CCCC2)cc1	nt	nt	-4	6%	2
O=C(Cc1ccccc1)OCCN1CCOCC1	-9	-1.4	-19	-4%	20
O=C(OCc1nc2ccccc2s1)c1ccco1	43	3.3	nt	33µM*	-2
Cc1cc(/C(N)=N/OC(=O)Nc2cccc(C(F)(F)F)c2)no1	2	nt	nt	-1%	nt
COc1ccc(CN2CCSCC2)c(OC)c1C	4	0.4	nt	nt	nt
CCc1ccc(/C=N/NC(=O)c2cc(-c3ccccc3OC)nc3ccccc23)s1	-5	-0.9	-14	-1%	-8
Cn1cnnc1-c1cccc(NS(=O)(=O)c2ccc(N3CCCC3=O)cc2)c1	-3	-0.9	13	-21%	-4
CCOC(=O)c1ccc(NC(=O)Nc2ncc(Cl)cc2Cl)cc1	58	9.6	nt	nt	nt
COC(=O)c1ccc(CN2CCN(CC(C)C)C(CCO)C2)cc1 (configuration not stated)	-3	-3.2	nt	1%	nt
COc1ccc(C(C#N)Nc2ccccc2C)cc1 (configuration not stated)	-9	3.3	27	-3%	6
CCOC(=O)N1CCN(C(=O)CNC(=O)Cc2ccc(Cl)cc2)CC1	-8	-0.7	-45	3%	3
Other compounds
SMILES	Mtb betalactam	RecA intein inh	YopH PTP inh	Mtb growth	Arbovirus anti	others
COc1cccc(C2CC(c3ccccc3Cl)n3nnnc3N2)c1 (configuration not stated)	2	2.0	-28	-12%	-16
Cc1ccc(C(=O)COc2nc(C)cc(C)c2C#N)cc1	-12	1.4	-116	-5%	0
Cn1c(NC(=O)c2cccnc2)nc2ccccc21	93	-0.9	-48	49%	-4
Cc1ccc(NC(=O)CSc2nnc(C)n2-c2ccccc2)cc1	-5	0.1	-25	12%	6
CC(=O)Nc1cccc(NC(=O)c2ccc3c(c2)CCN3S(=O)(=O)c2ccccc2)c1	4	5.1	nt	nt	nt
CCOC(=O)C1=C(C)N=c2s/c(=C\c3cccc(OCC(=O)O)c3)c(=O)n2C1c1ccccc1OC (configuration not stated)	-2	0.1	nt	nt	nt
COc1ccccc1CN1C(=O)c2ccccc2C1C(=O)NC1CCC(C)CC1 (configuration not stated)	6	1.0	nt	5%	5
CCOC(=O)c1cccc(NC(=O)C2CCCN(S(=O)(=O)c3c(C)n[nH]c3C)C2)c1 (configuration not stated)	-4	-1.8	-37	nt	-19
Cc1ccc(-c2nnc(N3CCN(C(=O)c4cccs4)CC3)c3ccccc23)cc1	93	2.1	nt	?	nt
O=C(CSc1ncn[nH]1)Nc1nsc(-c2ccccc2)n1	-3	-0.1	-21	5%	12
CC1Cc2ccccc2N1C(=O)CSc1nnc(-c2ccccc2)c(-c2ccccc2)n1 (configuration not stated)	-13	1.7	-7	-2%	1
CCCN1CCN(c2nc(-c3cccs3)nc3ccccc23)CC1	4	2.6	-17	9%	-22
COc1ccc(C2(C(=O)N3CCOCC3)CCOCC2)cc1OC	-7	-1.4	-48	-7%	1
O=C1NC(=O)N(Cc2ccccc2)C(=O)/C1=C/N1CCCc2ccccc21	14	-3.5	-22	-2%	-6
CC(C)c1nnc(NC(=O)c2ccc(N3C(=O)CCC3=O)cc2)s1	-6	2.4	-20	3%	11	Arbovirus anti repeat=3
COc1ccc(C(=O)/C=C/c2ccsc2)cc1CSCC(=O)O	-4	9.1	nt	nt	nt
CC(C)(C)c1ccc(C(=O)NCCCNC(=O)c2ccccn2)cc1	5	-3.4	nt	nt	nt
COc1cc(C(=O)NCCC2=CCCCC2)cc(OC)c1OC	3	3.2	-34	-7%	-3
CCOC(=O)NC(Nc1nnc(C)s1)(C(=O)OCC)C(F)(F)F (configuration not stated)	-1	-0.6	-10	4%	7
COCCNC(=O)c1cn(Cc2c(F)cccc2Cl)nn1	-2	-0.5	9	nt	4
CCN(CC)Cc1cc(O)c(CN(CC)CC)cc1O	nt	15	nt	-9%	1
COc1cc(S(=O)(=O)Nc2ccc(C(=O)NCC(=O)O)cc2)ccc1NC(C)=O	2	2.5	nt	-3%	2
CC(CCc1ccccc1)NC(=O)c1cncc(Br)c1 (configuration not stated)	-3	2.9	-9	1%	-3
C=CCn1ccc2c([N+](=O)[O-])cccc2c1=O	-1	-2.2	nt	-3%	-10
Cc1cnc(CNC(=O)c2ccc3oc(Cc4ccc(Cl)cc4)nc3c2)cn1	7	2.4	nt	nt	nt
COc1cc(Nc2ccccn2)cc(C(=O)Nc2cccc(C(F)(F)F)c2)c1	-7	2.9	nt	-3%	nt
CCn1c(SCC(=O)Nc2nc(C)cs2)nnc1-c1cccnc1	3	nt	-27	10%	12
CN(C)CCCNC(=O)c1cc(C(=O)Cc2ccc(Cl)cc2)c[nH]1	1	-0.2	nt	nt	nt
OC(CNCc1ccccc1)COCc1ccc(Cl)cc1 (configuration not stated)	12	0.4	nt	5%	-6
Cc1ccc(-c2nnc3n2N=C(c2ccccc2Br)CS3)cc1	-6	0.7	-36	6%	-7

Continued; it opens with the four that closed the last part.
SMILES	Mtb betalactam	RecA intein inh	YopH PTP inh	Mtb growth	Arbovirus anti	others
CCn1c(SCC(=O)Nc2nc(C)cs2)nnc1-c1cccnc1	3	nt	-27	10%	12
CN(C)CCCNC(=O)c1cc(C(=O)Cc2ccc(Cl)cc2)c[nH]1	1	-0.2	nt	nt	nt
OC(CNCc1ccccc1)COCc1ccc(Cl)cc1 (configuration not stated)	12	0.4	nt	5%	-6
Cc1ccc(-c2nnc3n2N=C(c2ccccc2Br)CS3)cc1	-6	0.7	-36	6%	-7
Cc1cccc(OCc2nc(-c3cccnc3)no2)c1	2	-1.7	-40	4%	-9
Cc1c(CCOC(=O)CC23CC4CC(CC(C)(C4)C2)C3)sc[n+]1Cc1ccc([N+](=O)[O-])cc1	65	3.2	nt	9%	-19
COc1ccc(-c2cc(C(F)(F)F)nc(SCCC(=O)N3CCCC3)n2)cc1	-2	-0.6	-22	-16%	1
CCOc1ccc(N(CC(=O)NC2CCCCC2)C(=O)CCCC(=O)Nc2ccccn2)cc1	-3	1.1	nt	nt	nt
Cc1cc(C)n2nc(C(=O)NCCc3ccccc3)nc2n1	-4	1.9	-21	-7%	-3

Assay outcomes deposited in PubChem by several laboratories.
